Assay outcomes: PubChem, National Center for Advancing Translational Sciences (NCATS)
RE007 growth inh – less growth of the S. pombe RE007 Vpr strain. S. pombe RE007 Vpr strain, BacTiter-Glo ATP luminescence, 24 h; control for the full effect not named in the record. Potency, µM (doses to about 92.2 µM), without a hit: at the top dose activity change, negative = less growth. hit rate 0.21% among 360,000. AID 651644; active = well fitted falling curve with a large enough effect; inconclusive = small, poorly fitted or top-dose-only effect; inactive = no such curve, though single readings can be large or run the other way;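 also: % is scaled to controls: 0 for no effect and ±100 for the full control effect; nearly all actives have a fitted effect of over 50% in size; the assay follows cell death caused by Vpr and the record does not say whether a fall means rescue or toxicity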
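Fission yeast strain RE007, carrying one chromosomally integrated HIV-1 vpr copy, was seeded at OD 0.01 in PMG+AL medium with 23 nL pinned compound. After 24 h at 30 °C and 99% humidity, viability was read by BacTiter-Glo luminescence.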
Cruzain noTriton – inhibitors of Trypanosoma cruzi cruzain without detergent; Potency, µM, without a hit: max response, negative = inhibition, hits mostly inhibitors; purified cruzain, Z-FR-AMC fluorescence, no detergent; AID 1476; P25779; hit rate 2.3% among 200,000; active = well fitted curve in the direction sought with a large enough effect; inconclusive = small, poorly fitted or top-dose-only effect, or another doubt; inactive = no such curve, though single readings can be large; an effect the other way counts as inactive or inconclusive;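 also: plate controls were enzyme without inhibitor for no effect and buffer without enzyme for full effect; nearly all actives have a fitted effect of over 40% in size; top concentration of the series not given in the record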
Target sequence (P25779 123-467 limits assumed): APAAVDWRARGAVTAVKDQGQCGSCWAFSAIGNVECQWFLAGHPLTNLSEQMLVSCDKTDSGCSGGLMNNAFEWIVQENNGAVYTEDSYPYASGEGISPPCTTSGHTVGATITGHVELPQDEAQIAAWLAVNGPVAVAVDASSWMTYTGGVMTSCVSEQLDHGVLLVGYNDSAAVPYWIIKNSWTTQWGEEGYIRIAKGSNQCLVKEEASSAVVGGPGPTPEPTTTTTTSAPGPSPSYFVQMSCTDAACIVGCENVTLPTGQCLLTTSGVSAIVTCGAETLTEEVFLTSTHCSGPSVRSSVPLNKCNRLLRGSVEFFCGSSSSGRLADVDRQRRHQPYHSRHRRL
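Detergent-free condition (0.00005% Triton X-100) in acetate buffer pH 5.5 with DTT. 1.5 nM enzyme and compound were pre-mixed 15 min, then 2 uM Z-FR-AMC substrate added; reaction progress from fluorescence change between first and third reads (60 s).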
Lassa entry inh – Lassa virus entry inhibition | Lassa virus pseudotype entry inhibition, cell reporter; control for the full effect not named in the record | Potency, µM (highest dose often 37.9 µM), without a hit: top-dose activity change, negative = inhibition, most hits filed as inhibitors | hit rate 1.2% among 300,000; active means well fitted inhibition curve with a large enough effect; inconclusive means small, poorly fitted or top-dose-only effect, or effect the other way; inactive means flat fitted curve, though single readings scatter; tested in HEK293 cells; also: % is scaled to controls: 0 for no effect and ±100 for the full control effect; nearly all actives have a fitted effect of over 50% in size; luciferase read-out
SARS PLpro yeast – inhibitors of SARS-CoV papain-like protease in yeast; S. cerevisiae expressing SARS-CoV PLpro, growth rescue; control for the full effect not named in the record; Potency, µM (top dose mostly 32.9 µM), for inactives: at the highest dose activity, positive = growth rescue; hit rate 0.19% among 330,000; also: 0% is about no effect; nearly all actives have a fitted effect of over 55% in size; growth read by luminescence after 48 h
Cruzain Triton – blocks cruzain activity in presence of Triton detergent; P25779; purified cruzain, Z-FR-AMC fluorescence, 0.01% Triton; Potency, µM, inactives show max response, negative = inhibition, actives largely listed as inhibitors; hit rate 0.43% among 200,000; active = well fitted curve in the direction sought with a large enough effect; inconclusive = small, poorly fitted or top-dose-only effect, or another doubt; inactive = no such curve, though single readings can be large; an effect the other way counts as inactive or inconclusive;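 also: plate controls were neutral wells for no effect and buffer without enzyme for full effect; nearly all actives have a fitted effect of over 40% in size; top concentration of the series not given in the record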
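Detergent-containing run (0.01% Triton X-100) in acetate buffer pH 5.5 with 5 mM DTT: enzyme at 1.5 nM final, 15 min compound preincubation at room temperature, then 2 uM Z-FR-AMC substrate. Activity taken as 60 s fluorescence increase at 360/450 nm.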
NS1 function inh – inhibitors of influenza NS1 protein function; AID 2326; hit rate 0.4% among 270,000; S. cerevisiae slowed by influenza A NS1, growth recovery by OD600; Potency, µM (titrated, usually from 46.1 µM), for the others: top-dose activity, positive = more growth; also: actives are rising curves; nearly all actives have a fitted effect of over 50% in size
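OD600 was taken as the measure of yeast growth restored by compound in an NS1-expressing S. cerevisiae strain. Cells had been washed out of glucose medium and diluted 1:100 into galactose -URA medium, pH 6.0.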
StopGo reporter – lowers the luciferase signal of an FMDV 2A StopGo reporter. human cells with a luciferase reporter of 2A StopGo recoding; control for the full effect not named in the record. Potency, µM (top dose mostly 57.9 µM), for inactives: at the top dose signal change, negative = less light. hit rate 1.2% among 410,000; active = well fitted falling curve with a large enough effect; inconclusive = small, poorly fitted or top-dose-only effect; inactive = no such curve, though single readings can be large or run the other way; tested in HEK293T cells; also: % is scaled to controls: 0 for no effect and ±100 for the full control effect; nearly all actives have a fitted effect of over 45% in size; luciferase light after 4 h
Marburg entry inh – blocks Marburg virus binding to or entry into cells | Potency, µM (titrated, usually from 37.8 µM), without a hit: top-dose activity change, negative = inhibition, usual class: inhibitors | Marburg virus pseudotyped entry inhibition, cell reporter; control for the full effect not named in the record; about a third of the inactives were read at about 46 µM | hit rate 1.8% among 300,000; active = well fitted inhibition curve with a large enough effect; inconclusive = small, poorly fitted or top-dose-only effect, or effect the other way; inactive = flat fitted curve, though single readings scatter; tested in HEK293 cells; about a fifth of its hits are not listed in these tables; also: % is scaled to controls: 0 for no effect and ±100 for the full control effect; luciferase read-out
* marks the source's active call; other numbers are inactive results; ? = inconclusive; nt = not tested or not shown; & = joins results of further samples; [ ] = remark or other dose. Unless noted, calls follow the shape of the dose curve; as a rule, active means well fitted rising curve with a large enough effect; inconclusive means small, poorly fitted or top-dose-only effect; inactive means no such curve, though single readings can be large or run the other way. Potency is read from the fitted curve at half-maximal effect.

SMILES	RE007 growth inh	Cruzain noTriton	Lassa entry inh	SARS PLpro yeast	Cruzain Triton	NS1 function inh	StopGo reporter	Marburg entry inh
Cc1cccc(-n2c(O)c(C=Nc3cccc(O)c3)c3ccccc3c2=O)n1	7%	nt	nt	6%	nt	-26%	-22%	nt
CC(=O)c1ccc(NC(=O)C(C)OC(=O)c2cccc(-n3cnnn3)c2)cc1 (stereo not given)	22%	nt	-2%	4%	nt	nt	?	3%
Cc1ccc(Cn2c(C(=O)NCCCN3CCOCC3)cc3sccc32)cc1	-17%	-1%	2%	-1%	-5.4%	1%	0%	?
CCOC(=O)N1CCC(n2c(=S)[nH]c3ccccc3c2=O)CC1	28%	7%	-4%	-7%	2.6%	2%	-23%	11%[46.1 µM]
COC(=O)c1nnn(CC(=O)Nc2cccc(Cl)c2)c1C(=O)OC	0%	-1%	-1%	0%	3.4%	-1%	3%	8%
O=C(CCc1ccccc1)NC(=S)Nc1cc(C(F)(F)F)ccc1N1CCOCC1	17%	?	-8%	-1%	-5.7%	11%	?	-17%
Cc1nnsc1C(=O)Nc1ccc(S(=O)(=O)N2CCCCC2C)cc1 (stereo not given)	13%	nt	-24%[46.1 µM]	5%	nt	-11%	-23%	-12%[46.1 µM]
COC(=O)c1cc(-c2c(-c3cc(OC)c(OC)c(OC)c3)noc2C)cc([N+](=O)[O-])c1	1%	nt	nt	-3%	nt	3%	-10%	nt
COc1ccc(N(C(C)C(=O)NN=C2CCCCCCC2)S(C)(=O)=O)cc1 (stereo not given)	13%	nt	-24%	3%	nt	nt	-22%	9%
CCc1nnc(SCc2cn3c(C)cc(C)nc3n2)n1N	7%	-13%	0%	5%	-7.7%	10%	-22%	4%
CCOC(=O)C1=C(C)NC(C)=C(C(=O)OCC)C1C	5%	7%	-16%&-7%	-4%&24%	-4.6%	-1%&-2%	-22%	-13%&12%
Cc1ccc(NCC(=O)N/N=C\c2ccc[nH]2)cc1	6%	nt	?	1%	nt	-1%	21%	3.2µM*
CC(C)CC(=O)NC(=S)Nc1ccc(NC(=O)c2ccco2)cc1	11%	-4%	-3%	-7%	-13%	11%	4%	20%
Cc1cc(C=O)c(C)n1-c1ccc(Cl)c(C(=O)O)c1	3%	nt	-2%[46.1 µM]	-1%	nt	nt	5%	?
Cc1ccc(-c2nc3cc(N)ccc3o2)cc1Br	-1%	nt	?	-4%	nt	19%	18%	?
Cc1ccnc(-n2c(-c3ccco3)nc3ccccc3c2=O)c1	3%	-6%	-1%	5%	-3.0%	5%	4%	4%
COc1ccc(OC)c(CC(NC(C)=O)C(=O)NC2CCN(S(=O)(=O)c3ccc(NC(C)=O)cc3)CC2)c1 (stereo not given)	-18%	nt	-2%[46.1 µM]	-1%	nt	0%	10%	18%[46.1 µM]
Cc1cccc(NC(=O)N2CCCCCC2)c1	28%	nt	nt	-2%	nt	0%	71%[activator]	nt
O=[N+]([O-])c1ccc(Sc2nccn2Cc2ccccc2)cc1	13%	-5%	-16%	-3%	-1.6%	-23%	nt	3%
Cc1cccc(OCCn2nnc3sc4c(c3c2=O)CCCC4)c1	nt	1%	16%[46.1 µM]	nt	-5.3%	nt	45%[activator]	?
Cc1ccc(NC(=S)N2CCN(c3ccccn3)CC2)c(C)c1	-9%	nt	nt	-1%	nt	2%	-17%	nt
O=C(O)c1ccc(Nc2nc3ccc(Cl)cc3[nH]2)cc1	2%	nt	nt	-1%	nt	2%	-14%	nt
Cc1nn(CCC(=O)NNC(=S)Nc2cccc(Cl)c2)c(C)c1[N+](=O)[O-]	10%	-10%	-11%	-2%	-3.2%	4%	-9%	18%
O=C(O)c1cc([N+](=O)[O-])ccc1NCc1cccnc1	0%	nt	?	4%	nt	3%	-10%	22%
CCCS(=O)(=O)N1CCN=C1SCc1cccnc1	3%	nt	-4%	1%	nt	nt	10%	16%[46.1 µM]
COC(=O)c1sccc1NC(=O)CN(C)NS(=O)(=O)c1ccc(F)cc1	12%	2%	-14%	-5%	3.1%	-55%	-17%	?
COc1cc(NC(=O)c2ccc(F)cc2)c(OC)cc1NC(=O)CN1CCOCC1	-5%	nt	?	-1%	nt	-2%	-12%	-28%[46.1 µM]
COc1ccc(-c2nn(-c3ccccc3)cc2/C=N/O)cc1OC	-1%	nt	nt	-2%	nt	-5%	-6%	nt
O=C(c1cccc(F)c1)N1CCN(c2cc(N3CCCCC3)c(F)cc2[N+](=O)[O-])CC1	-8%	-3%	-29%	-15%	0.3%	-4%	6%	?
Cc1nnc(NC(=O)C23CC4CC(C)(CC(C)(C4)C2)C3)s1	1%	nt	8%[46.1 µM]	nt	nt	nt	27%	-1%[46.1 µM]
Cc1cc(C)n2nnnc2c1C#N	-10%	-22%	0%	2%	0.7%	11%	-28%	-5%
COc1ccc(/C(C)=N/NC2=NCCN2)cc1Cl	-4%	nt	-12%[46.1 µM]	-7%	nt	-2%	-19%	?
CC(=O)c1nnn(-c2ccccc2C#N)c1C	-19%	nt	?	2%	nt	0%	1%	-10%
CCOc1ccc(C(=O)NCC(=O)N2CCCCCCC2)cc1OCC	8%	nt	-15%	2%	nt	nt	-15%	-8%
Cc1ccn(CC(=O)N/N=C/c2cc([N+](=O)[O-])ccc2O)n1	-15%	-3%	?	0%	-6.6%	-35%	-8%	?
O=C(COC(=O)/C=C/c1ccc(OC(F)F)cc1)NCCN1C(=O)CSC1=O	-6%	nt	8%	23%	nt	nt	-4%	-18%[46.1 µM]
Cc1ccc(CN2CCN(/N=C/c3ccc(N(C)C)cc3)CC2)cc1	-4%	nt	1%[46.1 µM]	0%	nt	0%	-13%	0%[46.1 µM]
CC(C)(C)C1CCC(=NNc2ncc(C(F)(F)F)cc2Cl)CC1 (stereo not given)	1%	4%	3%	-7%	-6.3%	4%	22%	10%
Cn1c(NC(=S)Nc2ccccc2)nc2ccccc21	1%	?	?	8.9µM*	0.6%	7%	-2%	?
CCCCCSc1cc(OC)c(CCN)cc1OC	4%	6%	?	-3%	2.8%	4%	0%	?
COc1ccccc1NC(=O)Cn1c(C)cc(=O)c2cccc(OC)c21	0%	nt	-19%	0%	nt	-66%	7.1µM*	?
Cc1ccc(NC(=O)COc2ccccc2[N+](=O)[O-])nc1	-23%	nt	?	1%	nt	nt	-23%	?
COc1ccc(C2c3ccsc3CCN2C(=O)C(C)(C)C)cc1 (stereo not given)	33%	nt	nt	2%	nt	1%	-22%	nt
CCN(CC)S(=O)(=O)c1ccc2[nH]c(=O)cc(C(=O)Nc3ccccc3N3CCOCC3)c2c1	11%	nt	-14%	-1%	nt	nt	-14%	-19%
CC1=NC2(CCCc3c2no[n+]3[O-])N(O)C1(C)C (stereo not given)	2%	10%	-3%	4%	1.7%	3%	-3%	-1%
O=C(NCc1ccc(F)cc1)C1CCCN(c2ncnc3onc(-c4ccc(F)cc4)c23)C1 (stereo not given)	nt	10%	6%[46.1 µM]	nt	-3.3%	nt	0%	nt
Cc1cc(Nc2cc(Cl)ccc2C)n2nc(-c3ccccc3)nc2n1	nt	0%	4%[46.1 µM]	nt	-3.6%	nt	?	-1%[46.1 µM]
CCCOC(=O)c1ccc(NC(=O)c2nc3nc(C)cc(C)n3n2)cc1	-1%	nt	-24%	-2%	nt	nt	-27%	21%[46.1 µM]
Cc1cc2nc3n(c2cc1C)CC1CC(C(=O)NCC2CC2)N(C)C31 (stereo not given)	-16%	nt	nt	2%	nt	9%	-13%	nt
CC(=O)Nc1cc(-c2ccc(Cl)cc2)[nH]n1	-11%	nt	nt	-5%	nt	-2%	64%[activator]	nt
CC(=O)c1ccc(S(=O)(=O)N2CCn3cccc3C2c2ccccc2F)cc1 (stereo not given)	nt	-4%	-15%[46.1 µM]	nt	-6.5%	nt	-15%	nt
CCCC1CCC(C(=O)Nn2cnc3ccccc3c2=O)CC1 (stereo not given)	10%	16%	4%	-10%	0.6%	6%	nt	0%
Cc1ccccc1OCC(=O)Nc1ccc(C(N)=O)cc1	19%	4%	-6%	3%	3.5%	-11%	26%	17%
CCCc1cc(=O)n2[nH]c(NCc3ccc(Cl)cc3Cl)nc2n1	5%	-1%	-2%	8%	1.7%	-20%	-4%	7%
Cc1cc(C(=O)Cn2nc(C(=O)O)c3ccccc3c2=O)c(C)n1-c1ccc(OC(F)F)cc1	6%	nt	nt	0%	nt	-38%	-20%	nt
O=C(Nc1cccc(C(=O)N2CCN(c3ccccc3)CC2)c1)c1ccco1	-15%	nt	-6%	-4%	nt	-8%	2%	-5%
CC(C)(C)NC(=O)C(c1ccncc1)N(C(=O)CNC(=O)c1ccco1)c1ccc2c(c1)OCO2 (stereo not given)	-11%	6%	0%	4%	4.4%	-6%	-14%	1%&1%
O=C(COC(=O)c1ccc2c(c1)C(=O)N(Cc1ccncc1)C2=O)Nc1ccccc1[N+](=O)[O-]	7%	?	6%	-25%	-2.9%	13%	-11%	-5%
COc1ccc(NC(=O)CSc2nnc(NC(=O)c3ccc(S(=O)(=O)N4CCOCC4)cc3)s2)cc1	-15%	18%	12%	5%	0.3%	12%	4%	0%
Cc1nc2ccccc2n1C(C)c1ccccc1 (stereo not given)	0%	nt	nt	2%	nt	-6%	-25%	nt

The list goes on:
SMILES	RE007 growth inh	Cruzain noTriton	Lassa entry inh	SARS PLpro yeast	Cruzain Triton	NS1 function inh	StopGo reporter	Marburg entry inh
CC(=O)Nc1ccccc1-c1nc2ccc(C(=O)N3CCN(c4ccccc4)CC3)cc2[nH]c1=O	-10%	-3%	-1%	-2%	-3.8%	-6%	-18%	-18%&-18%
Cc1cccc(-n2c(O)c(C=NCc3cccnc3)c(=O)[nH]c2=O)c1C	0%	-7%	4%	3%	2.3%	-17%	-14%	0%
Cc1nnc(NC(=O)c2ccc3ccccc3c2)s1	-3%	nt	-2%[46.1 µM]	-2%	nt	-13%	26%	?
COc1ccc(CC(=O)Nc2ccccc2NC(=O)c2ccco2)cc1OC	1%	nt	1%	0%	nt	-3%	1%	21%[46.1 µM]
